Cruzain Triton: blocks cruzain activity in presence of Triton detergent; P25779; purified cruzain, Z-FR-AMC fluorescence, 0.01% Triton; Potency, µM, for inactives: max response, negative = inhibition, actives largely listed as inhibitors; 200,000 tested, 0.43% active;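 also: plate controls were neutral wells for no effect and buffer without enzyme for full effect; nearly all actives have a fitted effect of over 40% in size; top concentration of the series not given in the record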
Target sequence (P25779 123-467 limits assumed): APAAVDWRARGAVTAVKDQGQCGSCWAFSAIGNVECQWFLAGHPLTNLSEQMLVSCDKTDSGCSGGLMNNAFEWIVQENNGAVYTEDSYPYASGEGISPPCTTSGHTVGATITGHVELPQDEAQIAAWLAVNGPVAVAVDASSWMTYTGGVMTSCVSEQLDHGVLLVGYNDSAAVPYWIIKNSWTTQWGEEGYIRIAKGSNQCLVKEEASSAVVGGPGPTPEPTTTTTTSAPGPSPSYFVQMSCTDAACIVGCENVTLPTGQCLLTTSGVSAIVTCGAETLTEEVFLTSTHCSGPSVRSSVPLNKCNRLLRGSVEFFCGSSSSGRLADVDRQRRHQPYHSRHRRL
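Detergent-containing arm of a paired screen for aggregation-based inhibition: 0.01% Triton X-100 present. Cruzain at 1.5 nM cleaved 2 uM Z-FR-AMC at pH 5.5 with 5 mM DTT; AMC fluorescence gain over 60 s measured activity.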
LASV entry inh: blocks Lassa virus binding to or entry into cells; 300,000 tested, 1.2% active; Potency, µM (highest dose often 37.9 µM), for the others: at the top dose activity change, negative = inhibition, most hits filed as inhibitors; AID 540256; Lassa virus pseudotype entry inhibition, cell reporter; control for the full effect not named in the record; active means well fitted inhibition curve with a large enough effect; inconclusive means small, poorly fitted or top-dose-only effect, or effect the other way; inactive means flat fitted curve, though single readings scatter; tested in HEK293 cells; also: % is scaled to controls: 0 for no effect and ±100 for the full control effect; nearly all actives have a fitted effect of over 50% in size; luciferase read-out
SARS PLpro yeast: blocks SARS-CoV papain-like protease in a yeast assay. S. cerevisiae expressing SARS-CoV PLpro, growth rescue; control for the full effect not named in the record. Potency, µM (series often up to 32.9 µM), for inactives: at the top dose activity, positive = growth rescue. 330,000 tested, 0.19% active; active means well fitted rising curve with a large enough effect; inconclusive means small, poorly fitted or top-dose-only effect; inactive means no such curve, though single readings can be large or run the other way; also: 0% is about no effect; nearly all actives have a fitted effect of over 55% in size; growth read by luminescence after 48 h
Cruzain noTriton: blocks cruzain activity in detergent-free assay; 200,000 tested, 2.3% active; purified cruzain, Z-FR-AMC fluorescence, no detergent; P25779; Potency, µM, inactives show max response, negative = inhibition, most hits filed as inhibitors;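 also: plate controls were enzyme without inhibitor for no effect and buffer without enzyme for full effect; nearly all actives have a fitted effect of over 40% in size; top concentration of the series not given in the record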
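Detergent-free condition (0.00005% Triton X-100) in acetate buffer pH 5.5 with DTT. 1.5 nM enzyme and compound were pre-mixed 15 min, then 2 uM Z-FR-AMC substrate added; reaction progress from fluorescence change between first and third reads (60 s).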
RE007 growth inh: less growth of the S. pombe RE007 Vpr strain. S. pombe RE007 Vpr strain, BacTiter-Glo ATP luminescence, 24 h; control for the full effect not named in the record. Potency, µM (top dose mostly 92.2 µM), for the others: at the top dose activity change, negative = less growth. 360,000 tested, 0.21% active. AID 651644; active = well fitted falling curve with a large enough effect; inconclusive = small, poorly fitted or top-dose-only effect; inactive = no such curve, though single readings can be large or run the other way;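 also: % is scaled to controls: 0 for no effect and ±100 for the full control effect; nearly all actives have a fitted effect of over 50% in size; the assay follows cell death caused by Vpr and the record does not say whether a fall means rescue or toxicity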
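Fission yeast strain RE007, carrying one chromosomally integrated HIV-1 vpr copy, was seeded at OD 0.01 in PMG+AL medium with 23 nL pinned compound. After 24 h at 30 °C and 99% humidity, viability was read by BacTiter-Glo luminescence.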
NS1 inh: influenza NS1 inhibition; 270,000 tested, 0.4% active; Potency, µM (titrated, usually from 46.1 µM), without a hit: at the highest dose activity, positive = more growth; S. cerevisiae slowed by influenza A NS1, growth recovery by OD600; active means well fitted rising curve with a large enough effect; inconclusive means small, poorly fitted or top-dose-only effect; inactive means no such curve, though single readings can be large or run the other way; also: nearly all actives have a fitted effect of over 50% in size
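In this qHTS, NS1 from influenza A is expressed in budding yeast, where it slows growth. Cells are switched from glucose to 2% galactose medium (pH 6.0, -URA), treated with compound, and growth recovery is read at OD600.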
2A StopGo: FMDV 2A StopGo reporter, luciferase signal | Potency, µM (top dose mostly 57.9 µM), for the others: top-dose signal change, negative = less light | human cells with a luciferase reporter of 2A StopGo recoding; control for the full effect not named in the record | 410,000 tested, 1.2% active; active = well fitted falling curve with a large enough effect; inconclusive = small, poorly fitted or top-dose-only effect; inactive = no such curve, though single readings can be large or run the other way; tested in HEK293T cells; also: % is scaled to controls: 0 for no effect and ±100 for the full control effect; nearly all actives have a fitted effect of over 45% in size; luciferase light after 4 h
Marburg entry inh: inhibitors of Marburg virus binding or cell entry | 300,000 tested, 1.8% active | Potency, µM (doses to about 37.8 µM), for inactives: top-dose activity change, negative = inhibition, most hits filed as inhibitors | AID 540276 | Marburg virus pseudotyped entry inhibition, cell reporter; control for the full effect not named in the record; about a third of the inactives were read at about 46 µM; active = well fitted inhibition curve with a large enough effect; inconclusive = small, poorly fitted or top-dose-only effect, or effect the other way; inactive = flat fitted curve, though single readings scatter; tested in HEK293 cells; about a fifth of its hits are not listed in these tables; also: % is scaled to controls: 0 for no effect and ±100 for the full control effect; luciferase read-out
Starred values were filed as active, the others as inactive; ? = inconclusive; · = no result given; & = joins results of further samples; ! = a repeat was not active; [ ] = another dose, or the depositor's remark. Unless noted, calls follow the shape of the dose curve; as a rule, active = well fitted curve in the direction sought with a large enough effect; inconclusive = small, poorly fitted or top-dose-only effect, or another doubt; inactive = no such curve, though single readings can be large; an effect the other way counts as inactive or inconclusive. Potency is read from the fitted curve at half-maximal effect.

SMILES | Cruzain Triton | LASV entry inh | SARS PLpro yeast | Cruzain noTriton | RE007 growth inh | NS1 inh | 2A StopGo | Marburg entry inh
CCc1ccc(C2N3CC4(C)CN2CC(c2ccccc2)(C3)C4=O)cc1 (stereo not given) | -0.7% | -10%[46.1 µM] | · | 5% | · | · | -6% | 7%[46.1 µM]
CCc1c(C)nc2ncnn2c1Nc1ccc(C#N)c(Cl)c1 | -1.7% | -7% | 3% | -13% | -10% | 4% | -15% | -13%
Cc1ccc(CNC(=O)c2cc(S(=O)(=O)N3CCCC(C)C3)cn2C)cc1 (stereo not given) | -27% | 0%[46.1 µM] | · | -2% | · | · | 1% | ·
CCNS(=O)(=O)c1ccc(CCC(=O)NCc2cccnc2)cc1 | · | · | -1% | · | -14% | 18% | -3% | ·
COc1ccc2[nH]c3nc(SCC(=O)Nc4ccc5c(c4)OCO5)nnc3c2c1 | -1.0% | · | -2% | ? | -10% | 1% | -9% | ?
O=C(OCc1ccccc1)C1CCCN1C(=O)c1ccccc1[N+](=O)[O-] (stereo not given) | 5.7% | 1% | 1% | 6% | -2% | ? | 2% | ?
CCOC(=O)C1=C(C)N=C2SC(CC)C(=O)N2C1c1cccc(F)c1 (stereo not given) | -5.3% | -13% | -31% | -9% | 0% | -73% | ? | 0%
O=C(OCCN1C(=O)c2ccccc2C1=O)C1CC(O)CN1S(=O)(=O)c1ccc(Cl)cc1 (stereo not given) | · | 3% | -7% | · | 14% | · | -7% | 3%
OC(COCC1COc2ccccc2O1)CN1CCc2ccccc2C1 (stereo not given) | 1.8% | -4% | -12% | 7% | -14% | -4% | -11% | 6%
CCN1CCC(O)(/C=C/c2ccc(C)cc2)C(C(=O)/C=C/c2ccc(C)cc2)C1 (stereo not given) | · | ? | · | · | ? | · | 28µM* | ?
O=C(O)CCCCCN1C(=O)/C(=C\c2ccc(-c3ccc(Cl)cc3)o2)SC1=S | · | 19% | -1% | · | 20% | 0% | -27% | -6%[46.1 µM]
O=C(NCCc1ccccc1)c1nc2ncccn2n1 | 1.9% | ? | 4% | -5% | 6% | -8% | 45%[activator] | ?
COc1cccc(C(=O)OC2CCCN(C)C2)c1 (stereo not given) | 4.4% | 2% | 4% | -4% | -1% | -51% | 1% | ?
CC1CCN(C(=S)NC(=O)c2ccc(F)cc2)CC1 | · | 3% | -25% | · | -2% | · | 22% | 11%
COC(=O)c1cccc(NC(=O)CN2CCOCC2)c1 | 1.4% | -1% | -1% | -7% | 0% | 1% | -13% | -25%
CCOc1ccc(-c2nnc(NC(=O)C3CCCC3)o2)cc1 | · | -5% | -3% | · | 23% | 7% | 42%[activator] | 2%[46.1 µM]
CN1CCN(c2nc(-c3ccccc3)cc(C(F)(F)F)n2)CC1 | -4.8% | -19% | 0% | 1% | 27% | -2% | -1% | ?
NS(=O)(=O)c1ccc(CCNS(=O)(=O)c2ccc(Cl)nc2)cc1 | · | · | 1% | · | 4% | -1% | -6% | ·
COc1cc(CO)ccc1Oc1nc2ccccc2n2cnnc12 | · | · | 0% | · | 2% | -1% | -5% | ·
CCOC(=O)Nc1ccc2c(c1)ncn2C1CCCCC1 | 3.8% | 4% | -6% | 7% | 7% | -21% | · | 15%
COc1ccccc1Nc1nc(N)nc(CSC(=S)N2CCOCC2)n1 | · | 2% | 1% | · | -3% | 1% | 50%[activator] | 8%
Cc1nccc2c1[nH]c1ccccc12 | ? | 0%&7% | 0% | 40µM*! | 1% | -10%&1% | -7%&-4%&-15%&-6% | ?
CC(C)NC(=O)CC(=O)Nc1ccc2nc3n(c(=O)c2c1)CCCCC3 | -0.3% | 24%[46.1 µM] | · | -4% | · | · | -9% | ?
O=C(NNc1c(Cl)cccc1Cl)c1sccc1Cl | · | -3% | 0% | · | 1% | -6% | 4% | -1%
COC(=O)/C(C#N)=C1/C=Cc2ccccc2N1 | · | -1%[46.1 µM] | -1% | · | 3% | · | 29% | ?
Cc1ccc(S(=O)(=O)N(CC(=O)NCc2ccccc2Cl)C(=O)N2CCN(C)CC2)cc1 | · | 6% | 1% | · | -5% | · | -1% | -4%
O=C(/C=C/c1ccc(O)c(O)c1)c1ccc(S(=O)(=O)N2CCCCCC2)cc1 | -18% | 15% | ? | ? | ? | 0% | -30% | 16%
COc1ccccc1C1CC(c2ccc(C)cc2)Nc2ncnn21 (stereo not given) | 1.1% | -20% | -1% | 6% | 2% | -7% | -27% | 17%
Cn1c(/C(C#N)=C(\O)c2ccc(Br)s2)nc2ccccc21 | · | · | 28% | · | 14% | -3% | 0% | ·
CN(Cc1ccccc1)S(=O)(=O)CCNC(=O)c1ccc2c(c1)OCO2 | · | 7% | -3% | · | 2% | · | -5% | -3%

In another format: results already given
> O=C(O)CCCCCN1C(=O)/C(=C\c2ccc(-c3ccc(Cl)cc3)o2)SC1=S
  Cruzain Triton: ·
  LASV entry inh: 19%
  SARS PLpro yeast: -1%
  Cruzain noTriton: ·
  RE007 growth inh: 20%
  NS1 inh: 0%
  2A StopGo: -27%
  Marburg entry inh: -6%[46.1 µM]

> COC(=O)/C(C#N)=C1/C=Cc2ccccc2N1
  Cruzain Triton: ·
  LASV entry inh: -1%[46.1 µM]
  SARS PLpro yeast: -1%
  Cruzain noTriton: ·
  RE007 growth inh: 3%
  NS1 inh: ·
  2A StopGo: 29%
  Marburg entry inh: ?

> OC(COCC1COc2ccccc2O1)CN1CCc2ccccc2C1 (stereo not given)
  Cruzain Triton: 1.8%
  LASV entry inh: -4%
  SARS PLpro yeast: -12%
  Cruzain noTriton: 7%
  RE007 growth inh: -14%
  NS1 inh: -4%
  2A StopGo: -11%
  Marburg entry inh: 6%

> CC1CCN(C(=S)NC(=O)c2ccc(F)cc2)CC1
  Cruzain Triton: ·
  LASV entry inh: 3%
  SARS PLpro yeast: -25%
  Cruzain noTriton: ·
  RE007 growth inh: -2%
  NS1 inh: ·
  2A StopGo: 22%
  Marburg entry inh: 11%

Later entries:
SMILES | Cruzain Triton | LASV entry inh | SARS PLpro yeast | Cruzain noTriton | RE007 growth inh | NS1 inh | 2A StopGo | Marburg entry inh
Cc1ccc(NC(=O)C2CCCN(S(=O)(=O)c3c(C)noc3/C=C/N(C)C)C2)cc1F (stereo not given) | -8.0% | ? | 3% | 8% | 0% | ? | -18% | -17%
Cc1ccc(S(=O)(=O)NCc2nnc(SCC(=O)Nc3cccc(C)c3C)n2C)cc1 | 1.0% | -3% | 5% | -5% | -16% | 2% | -1% | -3%
O=C(Cn1c(=O)n(-c2ccc(F)cc2)c(=O)c2sccc21)Nc1cccc(C(F)(F)F)c1 | -6.4% | -26%[46.1 µM] | · | -9% | · | · | -20% | -3%[46.1 µM]
Cc1cc(/C=C(\C#N)C(=O)Nc2ccccc2F)c(C)[nH]1 | · | ? | -1% | · | 3% | -9% | 51%[activator] | ?
CC1CCc2c(sc3ncnc(NS(=O)(=O)c4cccs4)c23)C1 (stereo not given) | · | 19% | -8% | · | -5% | · | 4% | 18%[46.1 µM]
COCCSc1nnc(NC(=O)C2CC(=O)N(c3ccc(OC)cc3)C2)s1 (stereo not given) | · | 4% | 2% | · | 1% | · | 5% | 1%[46.1 µM]
CCCc1nc(SCC(=O)N2CCOCC2)c2c(C)c(C)sc2n1 | · | -2%[46.1 µM] | -4% | · | -5% | -21% | 31%[activator] | ?
O=C(NC(=O)c1ccc(Cl)c(Cl)c1)OC1CCS(=O)(=O)C1 (stereo not given) | 0.3% | 27% | -4% | 7% | 5% | -1% | 3% | -8%
Cc1ccc(-c2nn[nH]n2)cc1Cl | · | 19% | -1% | · | -18% | 0% | 0% | ?
CCCC(C(=O)NCC1CCCO1)N(Cc1ccco1)C(=O)CNS(=O)(=O)c1ccc(F)cc1 (stereo not given) | 5.1% | 7% | 8% | ? | 14% | 0% | -14% | -7%
O=C(NCc1ccccc1Cl)NC(=O)c1csc([N+](=O)[O-])c1 | · | -3% | -1% | · | 1% | -7% | 4% | 1%
CC(C)Oc1ccccc1C1Nc2ccccc2C(=O)N1c1ccc2c(c1)OCCO2 (stereo not given) | -8.0% | ? | -1% | -1% | -17% | -4% | -14% | ?
Nn1c(SCC(=O)NC2CCS(=O)(=O)C2)nnc1-c1ccco1 (stereo not given) | · | 1%[46.1 µM] | 1% | · | -4% | · | 0% | ?
COc1ccc(C2C(=O)N(CCc3ccccc3)CC(=O)N2C2CCCC2)cc1 (stereo not given) | -1.5% | 18%[14.3 µM] | -3% | -2% | 11% | -4% | -7% | 3%
COc1ccc(C(=O)c2ccccc2)c(OCC(=O)NC2CC2)c1 | · | 11%[46.1 µM] | -1% | · | -11% | -11% | ? | ?
O=C(Cn1c(C(=O)N2CCN(C3CCCCC3)CC2)cc2sccc21)c1ccccc1 | 2.6% | -28% | 3% | 0% | -10% | 2% | ? | ?
COc1cccc(Cn2c(NCc3cccnc3)nc3c2c(=O)n(C)c(=O)n3C)c1 | 2.4% | ? | 5% | 2% | -24% | 4% | ? | ?
Cc1nc2ccc([N+](=O)[O-])cc2[nH]1 | · | 6%[46.1 µM] | -1% | · | 11% | · | -16% | 8%[46.1 µM]
Cc1nc(Cl)sc1C(=O)Nc1ccccc1 | 4.4% | ? | -9% | 0% | -9% | 0% | 21% | 17%
COc1ccc(CN2C(=O)CCC(C(=O)O)C2c2ccccc2)cc1 (stereo not given) | · | 5% | 1% | · | 3% | -2% | 1% | -15%
CCOCCc1nn2c(=O)cc(CSCC(=O)Nc3cc(C)cc(C)c3)nc2s1 | · | ? | 13% | · | 8% | -4% | 1% | -11%[46.1 µM]
COc1ccc(CN(Cc2ccco2)C(=O)c2ccccc2F)cc1 | -3.8% | -25%[46.1 µM] | · | -3% | · | · | -10% | -10%[46.1 µM]
COc1ccc(/C=C/C(=O)O)cc1S(=O)(=O)N1CCC(Cc2ccccc2)CC1 | · | · | 0% | · | 0% | -3% | -11% | ·
COc1ccc(CCNC(=O)c2cnc3ccccc3n2)cc1 | · | -28% | -4% | · | -2% | -31% | 0% | 0%[46.1 µM]

Screening data from PubChem.
